Screening data from PubChem BioAssay.
D2 PAM: positive allosteric modulators of human D2 dopamine receptor; DiscoveRx D2 beta-arrestin cells, luminescence, 90 min; 100% = 57 uM dopamine signal; AID 624464; 360,000 compounds, 0.23% hits; potentiation, % (test concentration not listed); active = potentiation of 50% or more; inconclusive = 30% to 50%; inactive = 30% or less;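 further: compound concentration not given in the record; tested on top of an EC20 dose of dopamine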
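PathHunter beta-arrestin assay in DiscoveRx D2 cells. Compounds were added with an EC20 of dopamine (50 nM final) for 90 min at 37 deg C. Luminescence was read 1 h after detection reagent, with 57 uM dopamine as the EC100 control.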
D2 ag: agonists of human D2 dopamine receptor (beta-arrestin) | AID 624465 | 360,000 compounds, 0.084% hits | activation, % (test concentration not listed) | DiscoveRx PathHunter D2 beta-arrestin, luminescence, 90 min; 100% = 57 uM dopamine signal | P14416; in the data active = activation above about 40%; inconclusive = about 15% to 40%; inactive = below about 15%; further: compound concentration not given in the record; the text of the record calls up to 30% inactive
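Agonist mode: compounds alone added to overnight-plated D2 PathHunter cells for 90 min at 37 C, with 57 uM final dopamine (EC100) defining full response. Beta-arrestin recruitment detected by chemiluminescent reagent, read after 1 h at ambient temperature.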
CtBP-E1A blk: CtBP/E1A binding inhibition. AlphaScreen GST-E1A/His-CtBP binding, 1536-well; hits give low values; control for the full effect not named in the record. activity change, % (test concentration not listed). 340,000 compounds, 0.49% hits; in the data active means activity change below about -65%; inconclusive means about -30% to -65%; inactive means above about -30%; further: on the % scale 0 is the no-effect control and ±100 the full control effect
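AlphaScreen with 125 nM GST-E1A and 125 nM His-CtBP (5X stocks) in Tris pH 8.0, 300 mM NaCl, BSA, Tween 20, TCEP. Compounds preincubated 2 h at 37 deg C, then glutathione donor/nickel acceptor beads added for 1 h at 37 deg C in dark.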
Six1-Eya2 blk: Six1/Eya2 interaction inhibition; 360,000 compounds, 0.56% hits; AlphaScreen GST-Six1/His-Eya2 binding, biochemical; hits give low values; control for the full effect not named in the record; AID 651725; activity change, % (no concentration beside the values); Q15475+O00167; in the data active = activity change below about -65%; inconclusive = about -30% to -65%; inactive = above about -30%; further: on the % scale 0 is the no-effect control and ±100 the full control effect
Target sequence (O00167 whole entry, looked up): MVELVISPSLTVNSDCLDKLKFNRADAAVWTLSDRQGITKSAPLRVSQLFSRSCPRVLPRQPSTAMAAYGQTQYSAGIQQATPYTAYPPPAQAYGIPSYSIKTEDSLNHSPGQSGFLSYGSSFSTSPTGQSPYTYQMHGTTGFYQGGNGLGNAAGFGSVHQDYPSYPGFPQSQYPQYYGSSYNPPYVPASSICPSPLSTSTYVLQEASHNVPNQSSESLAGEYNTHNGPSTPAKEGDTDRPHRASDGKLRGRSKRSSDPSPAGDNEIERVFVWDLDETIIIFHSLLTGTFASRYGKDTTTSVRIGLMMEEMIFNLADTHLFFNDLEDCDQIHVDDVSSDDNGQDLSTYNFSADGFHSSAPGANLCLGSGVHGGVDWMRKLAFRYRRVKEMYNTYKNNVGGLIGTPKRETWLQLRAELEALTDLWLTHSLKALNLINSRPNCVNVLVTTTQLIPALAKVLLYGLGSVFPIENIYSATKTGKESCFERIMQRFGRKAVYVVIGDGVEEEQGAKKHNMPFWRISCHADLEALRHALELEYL
Target sequence (Q15475 whole entry, looked up): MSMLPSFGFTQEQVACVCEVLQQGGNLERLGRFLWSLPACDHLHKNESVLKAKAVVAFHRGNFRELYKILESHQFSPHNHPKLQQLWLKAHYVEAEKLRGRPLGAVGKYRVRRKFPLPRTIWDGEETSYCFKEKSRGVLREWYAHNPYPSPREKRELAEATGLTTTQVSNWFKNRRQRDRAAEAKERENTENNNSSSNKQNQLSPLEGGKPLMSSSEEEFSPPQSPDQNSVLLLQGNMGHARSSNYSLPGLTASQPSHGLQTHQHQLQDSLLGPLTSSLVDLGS
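Six1/Eya2 binding was read as AlphaScreen signal after compounds were pinned into GST-Six1 plus His-tagged Eya2 (5X stock 250/500 nM) in pH 8.0 Tris/NaCl/TCEP buffer, beads added, then incubated 1 h, 37 C, dark.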
gsp ag: activates gsp, the McCune-Albright syndrome mutation. gsp mutant cells, cAMP HTRF, 30 min; control for the full effect not named in the record. 340,000 compounds, 0.13% hits. Potency, µM (titrated, usually from 76.9 µM), without a hit: top-dose activation (cAMP increase), actives largely listed as activators; active = well fitted activation curve with a large enough effect; inconclusive = small, poorly fitted or top-dose-only effect, or another doubt; inactive = no such curve, though single readings can be large or run the other way; cell line not stated here;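 further: phosphodiesterase inhibitor Ro 20-1724 added with compounds to block cAMP breakdown; potency means the concentration at half of the fitted maximal effect; nearly all actives have a fitted effect of over 60% in size; about a fifth of the inactives were tested at one dose only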
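Cells stably selected in G418 were plated at 2000/well, grown 16-24 hr, then given compounds in DMSO with the PDE inhibitor […] (300 uM solution added) for 30 min at 37C; cAMP was read by HTRF.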
gsp antagonist: antagonizes gsp, the McCune-Albright syndrome mutation; gsp-mutant cells, cAMP HTRF, 30 min; control for the full effect not named in the record; Potency, µM (doses to about 76.9 µM), for the others: top-dose activity change, negative = inhibition, usual class: inhibitors; 340,000 compounds, 0.4% hits; active = falling curve of any shape with a large fitted effect; inconclusive = falling curve, mostly with a smaller effect; inactive = flat or rising curve; cell line not stated here;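 further: intracellular cAMP measured with PDE inhibitor Ro 20-1724 present during compound exposure; potency means the concentration at half of the fitted maximal effect; on the % scale 0 is the no-effect control and ±100 the full control effect; nearly all actives have a fitted effect of over 65% in size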
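HTRF cAMP read-out (cAMP-d2 plus anti-cAMP antibody-K in lysis buffer, 30 min RT). Before lysis, cells are exposed to compounds with […] for 30 min at 37C in DPBS containing Ca/Mg, BSA and Tween 20.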
* hit, by the source's call; ? = inconclusive; . = not tested or not shown; [ ] = another dose, or the depositor's remark.

SMILES,D2 PAM,D2 ag,CtBP-E1A blk,Six1-Eya2 blk,gsp ag,gsp antagonist
C=CCOc1cccc(C2C(C(=O)c3ccc(C)o3)=C(O)C(=O)N2CCCn2ccnc2)c1 (centres undefined),-14,-1.4,-28,-8,?,10%
O=C(NCC1CCCO1)C1c2ccccc2C(=O)N1C1CCCCCC1 (centres undefined),-2,-2.6,6,1,-24%,-2%
CCC(=O)c1ccc(OCC(O)Cn2nnc3ccccc32)cc1 (centres undefined),-5,-2.5,-12,-8,11%[15.4 µM],0%
COc1ccc(C)cc1S(=O)(=O)N(CC(=O)Nc1ccc2c(c1)OCCO2)Cc1ccccc1,13,1.8,-7,-6,-2%,-6%
Cc1ccc(-n2cc(CN3CCN(Cc4nccn4C)CC3)c(-c3cccc(C)c3)n2)cc1,-11,-0.4,-12,-19,-53%[inhibitor],-2%
Cc1cc(CC(=O)O)c2oc(-c3ccoc3)cc(=O)c2c1,-1,-11,.,-5,-3%,2%
COC(=O)CNC(=O)C1CCCN1C(=O)OC(C)(C)C (centres undefined),4,-0.9,7,6,-11%,5%
CCOC(=O)C1=c2s/c(=C\c3ccncc3)c(=O)n2C(N)=C(C(=O)OC)C1c1ccncc1 (centres undefined),2,-3.3,.,-1,-6%,-13%
Cc1c(NC(=O)Nc2cccc([N+](=O)[O-])c2)c(=O)n(-c2ccccc2)n1C,-9,-6.6,4,-10,-3%[15.4 µM],4%
Cc1ccc(N2C(=O)CC(n3ccnc3)C2=O)cc1C (centres undefined),-8,-0.8,-1,-3,24%,2%
CC1CCCC(C)N1S(=O)(=O)c1ccc(S(=O)(=O)N2CCOCC2)cc1 (centres undefined),1,-0.9,6,2,7%,0%
COc1ccc(N2CCN(S(=O)(=O)c3c(C)nc4scc(C)n4c3=O)CC2)cc1,-6,-2.5,-27,-17,?,1%
Cc1snc2sc(C(=O)c3ccc(Br)cc3)c(N)c12,-2,0.3,3,15,8%,-7%
CCOC(=O)c1c(NC(=O)CSc2ncccn2)sc(C(=O)NC)c1C,-7,2.0,2,6,40%,-22%
CCOc1cc(C(=O)NC(C)c2ccncc2)cc(OCC)c1OCC (centres undefined),-22,-1.1,20,2,-56%[inhibitor],-1%
COc1ccccc1CNC(=O)CN1C(=O)C(C)N(c2ccc(C)cc2)C1=O (centres undefined),-17,-2.1,0,0,-64%[inhibitor],-16%
COC(=O)c1c(NC(=O)CSc2ncn[nH]2)sc(C)c1C,12,2.9,-12,0,9%,-24%
COc1ccc(C(CC(=O)O)NC(=O)Cc2ccccc2)cc1 (centres undefined),-8,3.5,11,3,3%,17%
CCc1ccc(-n2c(O)c(C=NCCN(CC)CC)c(=O)[nH]c2=O)cc1,1,0.6,-4,-5,-2%,7%
COc1ccc(-c2nc3c(=O)n(C)c(=O)[nH]c3n2CCc2ccccc2)cc1,16,-1.2,-5,10,13%,0%
Cc1ccc(NC(=O)N2CCN(C(=O)c3ccco3)CC2)cc1Cl,-15,5.3,0,0,-31%[inhibitor],-12%
Cc1ccccc1NC(=S)NCc1ccco1,-7,-2.1,1,-6,0%,-4%
CC(C)(C)NC(=O)c1cccc2c1C(=O)c1ccccc1-2,-3,-3.2,-14,-29,-4%,-6%
COc1cccc(/C=N\n2c(C)nnc2C)c1OC,-10,-3.3,5,-1,-47%[inhibitor],10%
COc1ccc(OCCOC(=O)c2cccs2)cc1,-12,-4.6,19,10,-3%,-3%
CCc1nc2ccccc2n1Cc1ccc(F)cc1,1,1.1,7,0,0%,5%
CCCC(=O)NCCCc1nc2ccccc2n1CCC,-15,0.3,-4,-1,-49%[inhibitor],5%
Cc1ccc(-n2[nH]c(=O)c(-c3ccccn3)c2C)cc1,7,2.3,-21,-22,-2%,-3%
CCc1nnc(NS(=O)(=O)c2ccc(NC(=S)NC(=O)/C=C/c3ccc(OC)cc3)cc2)s1,-6,-2.8,15,0,-43%,12%
O=C(NCCCN1CCC(Cc2ccccc2)CC1)C1CC(=O)N(C2CCCCCC2)C1 (centres undefined),-39,-5.1,2,-2,-31%[inhibitor],18%
C[C@@H]1NC(=O)c2cc([N+](=O)[O-])cc(I)c2OCC[C@@H](C(=O)NC(CC(=O)O)C(N)=O)NC(=O)[C@H](CCC(=O)O)NC1=O (some centres undefined),-11,-4.3,-8,1,-1%,12%
Cc1ccccc1C(=O)N1CCC(C(=O)Nc2nc3ccc(F)cc3s2)CC1,-19,-1.7,-5,-6,-1%,40µM*
O=C(O)c1ccccc1NS(=O)(=O)c1cccc(NS(=O)(=O)c2cc(Br)ccc2Br)c1,-21,1.6,0,90,0%[15.4 µM],-4%
O=C(CCc1nnc(Cc2ccc3c(c2)OCO3)o1)NCCc1ccccc1Cl,-13,2.6,-14,2,-6%,3%
Cc1ccc(C(=O)Nc2ccc(Nc3ccccc3)cc2)c(Cl)c1,-6,7.2,-29,-25,-4%[15.4 µM],4%
O=C(CSc1nc2cc(Cl)ccc2s1)c1cc2ccccc2o1,-10,-1.2,6,3,14%,-25%

3 compounds already listed, arranged by the number in Six1-Eya2 blk, rising.
SMILES,D2 PAM,D2 ag,CtBP-E1A blk,Six1-Eya2 blk,gsp ag,gsp antagonist
Cc1ccc(C(=O)Nc2ccc(Nc3ccccc3)cc2)c(Cl)c1,-6,7.2,-29,-25,-4%[15.4 µM],4%
Cc1ccccc1C(=O)N1CCC(C(=O)Nc2nc3ccc(F)cc3s2)CC1,-19,-1.7,-5,-6,-1%,40µM*
O=C(CCc1nnc(Cc2ccc3c(c2)OCO3)o1)NCCc1ccccc1Cl,-13,2.6,-14,2,-6%,3%

The listing continues:
SMILES,D2 PAM,D2 ag,CtBP-E1A blk,Six1-Eya2 blk,gsp ag,gsp antagonist
Cc1cc(O)c(NC(=O)c2ccc(C)c([N+](=O)[O-])c2)cc1C,-9,-1.9,.,11,-3%[15.4 µM],-12%
CCCCNC(=O)COC(=O)c1ccc(N(C)C)cc1,-2,-0.1,13,-3,-1%,5%
CC(=O)Nc1ccc(S(=O)(=O)Nc2ccc3nc(C)sc3c2)cc1,-2,0.8,3,-10,-5%,?
O=C(Cc1c[nH]c2ccccc12)NCc1ccncc1,11,5.7,6,6,?,11%
O=C(O)CN1C(=O)CCS(=O)c2ccccc21 (centres undefined),-6,-2.3,1,2,?,7%
O=C(NCCOc1ccccc1)c1ccccc1Cl,-6,-1.5,1,10,21%[15.4 µM],5%
CCC(C)[C@H](NC(=O)C1CC(=O)N(c2ccc(OC)cc2)C1)C(=O)NC1CCCC1 (some centres undefined),-3,2.3,1,1,22%,9%
CC1CCN(CC(=O)Nc2nccs2)CC1,-13,-1.4,-3,-3,-38%[inhibitor],4%
Cc1ccc(NC(=O)/C(CN(C)C)=N\O)cc1,1,-2.6,3,2,-31%[inhibitor],12%
O=C(Nc1ccc([N+](=O)[O-])cc1Br)c1cccnc1,-22,0.5,4,6,5%,5%
CCC1(c2ccccc2)NC(=O)N(CC(=O)Nc2cc(S(=O)(=O)N3CCOCC3)ccc2OC(C)C)C1=O (centres undefined),-5,-2.7,-1,-8,-46%[inhibitor],-1%
COc1ccc(-c2c3c(=O)n(C)c(=O)n(C)c3cn2-c2cccc(OC)c2)cc1,-5,-3.2,-16,-15,?,-3%
COc1cccc(CN(C)CC(=O)Nc2ccccc2C(=O)Nc2ccccc2)c1,-8,-4.8,-4,2,-10%[15.4 µM],-22%
COc1ccc(CCNC(=O)c2sc3cc(C)ccc3c2Cl)cc1,-3,-2.0,5,3,?,3%
O=C(c1ccc2c(c1)OCO2)N(Cc1ccco1)C1(C(=O)NC2CCCCC2)CCCCC1,-10,-1.5,-14,13,?,-26%
CC(C)N(Cc1ccccc1)C(=O)CN1C(=O)NC2(CCCC2)C1=O,-3,2.6,4,-3,-8%,11%
COc1ccc(NC2(c3ccc(Cl)cc3)C(=O)c3ccccc3C2=O)cc1,-43,-6.1,-12,-14,9%,1%
O=C(Cn1cc(C(F)(F)F)cc(Cl)c1=O)Nc1ccc(N2CCOCC2)cc1,2,-3.4,-9,4,-6%[15.4 µM],11%
Cc1cc(C(=O)OCC(=O)NNC(=O)c2cccs2)ccc1[N+](=O)[O-],-2,1.9,1,4,22%[15.4 µM],-9%
CCOc1ccc(N2CC(C(=O)NCCc3c[nH]c4ccc(OC)cc34)CC2=O)cc1 (centres undefined),-6,-3.3,0,-13,6%[15.4 µM],-7%
Cn1ncc([N+](=O)[O-])c1C(=O)Nc1ccccc1C(=O)O,-1,-2.7,6,-7,-6%,2%
COC(=O)c1cccc(OCC(O)Cn2cnc3cc(C)c(C)cc32)c1 (centres undefined),-7,-3.1,-15,-1,0%,-31%
CSc1cccc(NC(=O)CN(c2cccc(C)c2)S(C)(=O)=O)c1,-9,0.5,-15,-8,1%,-15%
Cc1ccnc(Nc2nc3ccccc3o2)n1,-5,3.8,-8,-26,-35%[inhibitor],6%
O=C(O)CCCc1nc2ccccc2s1,-2,-1.9,-1,2,-15%,-3%
CN1CCN(C(=S)Nc2ccc([N+](=O)[O-])cc2)CC1,-3,-2.6,15,0,0%,14%
CC(C)(NC(=O)c1cc(Cl)c2ccccc2c1O)C(=O)O,-15,0.5,.,-3,39%,5%
O=C(Nc1ccccc1C(=O)N1CCN(Cc2ccccc2)CC1)c1ccccc1,-5,-2.6,-4,3,6%[15.4 µM],8%
C=CCOc1cccc(CNCc2ccncc2)c1,-3,5.0,-2,6,-7%,-9%
O=C(NCCCN1CCOCC1)c1ccc(-c2ccc(Cl)cc2)o1,-1,-3.4,.,-4,-23%,-1%
O=c1c(Br)c(N2CCCC2)cnn1-c1ccccc1,12,3.9,-1,-1,-7%[15.4 µM],2%
Cc1ccn(CCC(=O)Nc2ccc(-c3ccno3)cc2)n1,-9,-1.1,.,3,-21%,4%
CN=C1SC(CC(=O)Nc2cc(Cl)ccc2Cl)C(=O)N1C (centres undefined),-17,-4.4,-1,2,15%,0%
